Assay outcomes from PubChem BioAssay.
NS1 function inh: influenza NS1 inhibition; Potency, µM (doses to about 46.1 µM), for the others: top-dose activity, positive = more growth; hit rate 0.4% among 270,000; S. cerevisiae slowed by influenza A NS1, growth recovery by OD600; note: actives are rising curves; nearly all actives have a fitted effect of over 50% in size
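Recovery from NS1-induced slow growth read by OD600 in budding yeast switched to galactose assay medium (pH 6.0, -URA) at 1:100 dilution. Compound 23 nl per well; the matching strain lacking NS1 serves as control.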
2A StopGo: lowers the luciferase signal of an FMDV 2A StopGo reporter; human cells with a luciferase reporter of 2A StopGo recoding; control for the full effect not named in the record; Potency, µM (doses to about 57.9 µM), for the others: at the top dose signal change, negative = less light; hit rate 1.2% among 410,000; active = well fitted falling curve with a large enough effect; inconclusive = small, poorly fitted or top-dose-only effect; inactive = no such curve, though single readings can be large or run the other way; tested in HEK293T cells; note: % is set by controls: 0 for no effect and ±100 for the full control effect; nearly all actives have a fitted effect of over 45% in size; luciferase light after 4 h
SARS PLP yeast: blocks SARS-CoV papain-like protease in a yeast assay; hit rate 0.19% among 330,000; AID 485353; S. cerevisiae expressing SARS-CoV PLpro, growth rescue; control for the full effect not named in the record; Potency, µM (series often up to 32.9 µM), inactives show top-dose activity, positive = growth rescue; note: 0% is about no effect; nearly all actives have a fitted effect of over 55% in size; growth read by luminescence after 48 h
Marburg entry inh: blocks Marburg virus binding to or entry into cells. hit rate 1.8% among 300,000. Marburg virus pseudotyped entry inhibition, cell reporter; control for the full effect not named in the record; about a third of the inactives were read at about 46 µM. Potency, µM (titrated, usually from 37.8 µM), for inactives: top-dose activity change, negative = inhibition, usual class: inhibitors; active = well fitted inhibition curve with a large enough effect; inconclusive = small, poorly fitted or top-dose-only effect, or effect the other way; inactive = flat fitted curve, though single readings scatter; tested in HEK293 cells; about a fifth of its hits are not listed in these tables; note: % is set by controls: 0 for no effect and ±100 for the full control effect; luciferase read-out
Cruzain inh noDet: inhibitors of Trypanosoma cruzi cruzain without detergent. P25779. purified cruzain, Z-FR-AMC fluorescence, no detergent. Potency, µM, inactives show max response, negative = inhibition, actives largely listed as inhibitors. hit rate 2.3% among 200,000. AID 1476; active = well fitted curve in the direction sought with a large enough effect; inconclusive = small, poorly fitted or top-dose-only effect, or another doubt; inactive = no such curve, though single readings can be large; an effect the other way counts as inactive or inconclusive;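 note: plate controls were enzyme without inhibitor for no effect and buffer without enzyme for full effect; nearly all actives have a fitted effect of over 40% in size; top concentration of the series not given in the record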
Target sequence (P25779 123-467 limits assumed): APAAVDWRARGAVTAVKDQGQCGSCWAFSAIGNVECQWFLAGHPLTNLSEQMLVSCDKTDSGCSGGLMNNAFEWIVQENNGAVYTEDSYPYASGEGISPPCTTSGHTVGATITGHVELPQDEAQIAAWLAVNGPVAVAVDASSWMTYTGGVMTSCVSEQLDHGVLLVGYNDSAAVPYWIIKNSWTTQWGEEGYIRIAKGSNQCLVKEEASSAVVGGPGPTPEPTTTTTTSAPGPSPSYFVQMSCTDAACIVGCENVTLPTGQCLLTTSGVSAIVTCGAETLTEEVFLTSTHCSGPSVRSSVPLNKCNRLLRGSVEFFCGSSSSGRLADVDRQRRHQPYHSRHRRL
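Purified cruzain at 1.5 nM, pre-incubated 15 min with compound at room temperature in 100 mM sodium acetate pH 5.5, 5 mM DTT, 0.00005% Triton X-100. Reaction started with 2 uM Z-FR-AMC; AMC fluorescence increase over 60 s gives rate.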
Cruzain inh Det: blocks cruzain activity in presence of Triton detergent | P25779 | purified cruzain, Z-FR-AMC fluorescence, 0.01% Triton | Potency, µM, without a hit: max response, negative = inhibition, most hits filed as inhibitors | hit rate 0.43% among 200,000; active = well fitted curve in the direction sought with a large enough effect; inconclusive = small, poorly fitted or top-dose-only effect, or another doubt; inactive = no such curve, though single readings can be large; an effect the other way counts as inactive or inconclusive;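 note: plate controls were neutral wells for no effect and buffer without enzyme for full effect; nearly all actives have a fitted effect of over 40% in size; top concentration of the series not given in the record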
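Cruzain (1.5 nM) preincubated 15 min at RT with compound in 100 mM sodium acetate pH 5.5, 5 mM DTT, 0.01% Triton X-100. Reaction started with 2 uM Z-FR-AMC; AMC fluorescence (ex 360/em 450 nm) change over 60 s gave rate.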
Lassa entry inh: inhibitors of Lassa virus binding or cell entry | Lassa virus pseudotype entry inhibition, cell reporter; control for the full effect not named in the record | Potency, µM (titrated, usually from 37.9 µM), inactives show at the highest dose activity change, negative = inhibition, hits mostly inhibitors | hit rate 1.2% among 300,000 | AID 540256; active means well fitted inhibition curve with a large enough effect; inconclusive means small, poorly fitted or top-dose-only effect, or effect the other way; inactive means flat fitted curve, though single readings scatter; tested in HEK293 cells; note: % is set by controls: 0 for no effect and ±100 for the full control effect; nearly all actives have a fitted effect of over 50% in size; luciferase read-out
RE007 growth inh: less growth of the S. pombe RE007 Vpr strain | S. pombe RE007 Vpr strain, BacTiter-Glo ATP luminescence, 24 h; control for the full effect not named in the record | Potency, µM (doses to about 92.2 µM), for inactives: top-dose activity change, negative = less growth | hit rate 0.21% among 360,000; active = well fitted falling curve with a large enough effect; inconclusive = small, poorly fitted or top-dose-only effect; inactive = no such curve, though single readings can be large or run the other way;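 note: % is set by controls: 0 for no effect and ±100 for the full control effect; nearly all actives have a fitted effect of over 50% in size; the assay follows cell death caused by Vpr and the record does not say whether a fall means rescue or toxicity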
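Fission yeast strain RE007, carrying one chromosomally integrated HIV-1 vpr copy, was seeded at OD 0.01 in PMG+AL medium with 23 nL pinned compound. After 24 h at 30 °C and 99% humidity, viability was read by BacTiter-Glo luminescence.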
An asterisk follows results filed as active; ? = inconclusive; . = not tested or not shown; [ ] = remark or other dose. Unless noted, calls come from the whole dose curve; as a rule, active means well fitted rising curve with a large enough effect; inconclusive means small, poorly fitted or top-dose-only effect; inactive means no such curve, though single readings can be large or run the other way. Potency is the fitted concentration of half-maximal effect.

SMILES	NS1 function inh	2A StopGo	SARS PLP yeast	Marburg entry inh	Cruzain inh noDet	Cruzain inh Det	Lassa entry inh	RE007 growth inh
CS(=O)(=O)Nc1ccc(C(=O)Nc2ccccc2-c2ccccc2)cc1	-15%	-14%	12%	.	.	.	.	2%
O=C(NNS(=O)(=O)c1ccccc1)c1ccc(F)cc1	11%	4%	0%	17%	.	.	29%	0%
CC1Sc2ccc(S(=O)(=O)NCCc3ccc(S(N)(=O)=O)cc3)cc2NC1=O (configuration not stated)	-2%	34%	?	0%[46.1 µM]	.	.	7%[46.1 µM]	-4%
O=S(=O)(CCc1nc2ccccc2s1)c1ccc(Cl)cc1	4%	8%	0%	7%	-1%	0.8%	18%	-9%
CCN1CCC(NC(=O)Nc2cc(Cl)ccc2OC)CC1	.	-4%	0%	7.1µM*	.	.	-7%[46.1 µM]	8%
CCC1CCCCN1CCCNC(=O)c1csc2c1CCCCC2 (configuration not stated)	-3%	-16%	5%	.	.	.	.	-9%
O=C(CN(Cc1ccccc1F)C(=O)Cn1nnc(-c2cccs2)n1)NC1CCCCC1	6%	20%	8%	?	-18%	3.7%	-16%	-2%
Cc1c(NC(=O)Nc2ccc3c(c2)OCO3)c(=O)n(-c2ccccc2)n1C	5%	18%	2%	13%	-2%	7.0%	?	14%
COc1ccc(C)cc1N(C(=O)COc1ccccc1)c1nc2ccccc2s1	-5%	-12%	4%	?	?	-5.5%	-17%	14%
COc1ccccc1C(=O)c1cc2ccc(O)cc2oc1=O	-4%	7%	0%	.	.	.	.	18%
O=C(COC(=O)/C=C/c1ccc([N+](=O)[O-])cc1)Nc1ccc2[nH]c(=O)[nH]c2c1	.	0%	4%	-2%	.	.	16%	-9%
Cc1nnc(SCC(=O)N2CCN(c3ccccc3)CC2)n1-c1ccccc1	2%	-22%	3%	-6%	-15%	4.9%	14%	2%
COC(=O)c1ccc(NC(=S)NCCc2ccc(OC)cc2)cc1	9%	-18%	0%	?	.	.	-19%[46.1 µM]	14%
NC(=O)CSc1nnc(NC(=O)c2ccc3ccccc3c2)s1	.	45%[activator]	-5%	-20%	.	.	-11%	2%
Cc1ccc(C)c(NC(=O)C(=O)NCCc2csc(-c3cccc(F)c3)n2)c1	.	7%	.	.	-9%	0.3%	17%[46.1 µM]	.
CCOC(=O)c1sc(NC(=O)CSc2nccn2C)nc1C	-8%	8%	-3%	-1%	.	.	-15%	-6%
C/C=C(/C)C(=O)OC1c2c(ccc3ccc(=O)oc23)OC(C)(C)C1OC(C)=O (configuration not stated)	-13%	-23%	8%	-21%	7%	-7.6%	?	-6%
CCN(CC)CCN(C(=O)c1cc2ccccc2cc1OC)c1nc2ccc(OC)cc2s1	8%	-19%	-3%	.	.	.	.	-3%
COc1ccccc1N1CCN(C2CC(=O)N(c3ccccc3)C2=O)CC1 (configuration not stated)	-8%	-4%	-21%	.	.	.	.	?
CCn1c(=O)n(CC)c2cc(NC(=O)c3ccccc3Cl)ccc21	1%	14%	-2%	.	.	.	.	2%
Cc1nnc2c(N3CCN(c4ccccc4F)CC3)nc3ccc(C(=O)c4ccccc4)cc3n12	.	0%	.	.	5%	-0.7%	14%[46.1 µM]	.
Cc1ccc(C#N)c(SCCN2CCCCC2)n1	2%	-19%	1%	-12%[46.1 µM]	.	.	29%[46.1 µM]	-12%
O=C1ON=C(c2ccccc2)/C1=C/c1ccco1	.	32µM*	1%	-3%[46.1 µM]	.	.	4%[46.1 µM]	0%
Cc1cc(C)nc(SCC(=O)Nc2ccc(Br)cn2)n1	-1%	-18%	1%	-7%	-8%	1.0%	5%	-6%
CCC(C)NC(=O)c1ccccc1NC(=O)/C(=C/c1ccc(OC)cc1)c1ccccc1 (configuration not stated)	9%	-12%	-14%	?	4%	-5.9%	?	-3%
Cc1nc2nc(SCC(=O)NCCN3CCOCC3)nn2c(C)c1Cc1ccccc1	7%	4%	3%	19%	6%	-1.6%	0%	0%
CCn1c(SCC(=O)NC2CC2)nnc1-c1ccc(F)cc1	-9%	-6%	-4%	-5%[46.1 µM]	.	.	18%[46.1 µM]	8%
Cc1ccnc(NC(c2ccsc2)c2ccc3ccc(C)nc3c2O)c1 (configuration not stated)	-4%	-12%	-4%	?	.	.	-9%[46.1 µM]	-12%
COc1ccc(OC)c(NC(=O)C2CCCN(S(=O)(=O)c3cccc4nonc34)C2)c1 (configuration not stated)	0%	.	-5%	9%	8%	5.1%	25%	-7%
Cc1cc2ccccc2n1CCNC(=O)Cc1ccccc1	12%	-24%	2%	.	-5%	-0.5%	.	2%
CSc1cccc(CN2CCC(CO)(Cc3ccccc3)CC2)c1	3%	-14%	-2%	?	.	.	-3%	-22%
O=C(Nc1ccc([N+](=O)[O-])cc1)NN1CCCCCC1	.	-6%	.	?	.	.	18%	13%
O=C(O)CCCCCCCCCC(=O)c1cccs1	-42%	-20%	-5%	-19%	-14%	-1.9%	-2%	-16%
Cc1cc(Oc2ccc(-c3ccccc3)cc2)nc(N2CCOCC2)n1	-69%	?	2%	11µM*	?	9.6%	4µM*	1%
CCN(c1ccccc1)S(=O)(=O)c1ccc(Cl)c(NC(=O)Nc2ccc(Cl)cc2C#N)c1	-7%	0%	3%	?	-18%	-4.0%	?	2%
CC(C)(C)NS(=O)(=O)c1ccc(NC(=O)CS(=O)(=O)Cc2ccccc2)cc1	0%	0%	2%	24%[46.1 µM]	.	.	-28%[46.1 µM]	11%
COc1ccc(C2CC(=O)C3=C(C2)Nc2ncnn2C3c2ccccc2C)c(OC)c1 (configuration not stated)	-33%	?	5%	?	17%	-5.8%	-8%	-13%
COc1cc(Br)c(CN2CCCN(C)CC2)cc1OC	0%	8%	-2%	.	.	.	.	5%
NC1=NC(c2ccc(F)cc2)n2c(nc3ccccc32)N1 (configuration not stated)	-8%	-11%	-1%	16%	-1%	0.2%	-30%	-16%
COc1ccc2c(c1)c(CC(=O)Nc1cccc(S(N)(=O)=O)c1)c(C)n2C(=O)c1ccc(Cl)cc1	5%	?	0%	?	.	.	-1%	7%
COc1ccc(CCNC(=O)c2cnc3ccc(C)cn3c2=O)cc1	.	-1%	.	15%[46.1 µM]	-2%	-1.0%	.	.
COc1cc(S(=O)(=O)Nc2cccc(C(=O)O)c2)c(OC)cc1Cl	4%	5%	6%	-4%	-14%	0.7%	18%	-10%
Cn1cnc2cc(NCc3cccs3)ccc21	.	59%[activator]	-3%	?	.	.	.	-28%
CCCc1ccc(-c2cc(C(=O)N/N=C/c3ccc([N+](=O)[O-])o3)c3ccccc3n2)cc1	0%	?	6%[6.58 µM]	7.1µM*	16µM*	-2.2%	5.6µM*	-11%
Cc1nc2sccn2c(=O)c1S(=O)(=O)NCc1ccc(F)cc1	.	2%	.	.	17%	-0.5%	8%[46.1 µM]	.
Nn1c(C2CCC2)nc2ccccc2c1=O	10%	-6%	3%	-10%[46.1 µM]	.	.	1%[46.1 µM]	-12%
COc1ccccc1NC(=O)/C(=C\c1cccnc1)NC(=O)c1ccc(C)cc1	-24%	1%	-2%	-21%[46.1 µM]	.	.	1%[46.1 µM]	-15%
O=C(Cn1c(=O)oc2cc(S(=O)(=O)N3CCCC3)ccc21)NC1CCCc2ccccc21 (configuration not stated)	-14%	?	3%	1%	25µM*	-11%	.	-11%
Cc1ccc(-c2csc3ncnc(SCC(=O)O)c23)cc1	3%	-9%	1%	3%[46.1 µM]	.	.	-4%	0%
CCc1nnc(NC(=O)C2Cc3ccccc3CN2S(=O)(=O)CC)s1 (configuration not stated)	.	28%	-3%	23%	.	.	25%	1%
O=C(O)c1cccc(-c2ccc(/C=c3/sc4nc5ccccc5n4c3=O)o2)c1	8%	23%	1%	.	.	.	.	-6%
CCCS(=O)(=O)N1CCCC(c2nc(-c3ccc(OC)cc3)no2)C1 (configuration not stated)	4%	.	4%	5%	3%	0.4%	-13%	8%
O=C(NCCN1CCc2ccccc2C1)Nc1ccc(F)cc1	-5%	-6%	8%	-1%	4%	-1.9%	.	-1%
CN(Cc1ccc2ccccc2c1)C(=O)c1ccc(C(F)(F)F)cc1	-19%	-5%	-11%	2%[46.1 µM]	.	.	20%[46.1 µM]	1%
COc1ccccc1NC(=O)Cn1nnc(-c2ccccc2NS(=O)(=O)c2ccccc2)n1	-3%	?	6%	?	?	-1.7%	?	2%
CC(=O)N=C1SC2CS(=O)(=O)CC2N1c1ccccc1Cl (configuration not stated)	-2%	7%	0%	?	1%	-4.1%	-2%	-2%
Cc1cc(C)c(NC(=O)CN(C)S(=O)(=O)c2ccc3c(c2)c(=O)n(C)c(=O)n3C)c(C)c1	.	-1%	.	5%[46.1 µM]	-10%	3.8%	-4%[46.1 µM]	.
O=C(C1CCC(CNS(=O)(=O)c2ccc(Br)s2)CC1)N1CCN(c2ccccc2)CC1 (configuration not stated)	.	?	.	3%[46.1 µM]	17%	-4.3%	0%[46.1 µM]	.
O=C(CCS(=O)(=O)c1ccccc1)Nc1ccccc1F	0%	21%	1%	17%	.	.	16%	-1%
CCCOC(=O)Cn1cnc2scc(-c3ccc(C)cc3)c2c1=O	-4%	-7%	-7%	?	.	.	-12%[46.1 µM]	1%
(listing goes on)
SMILES	NS1 function inh	2A StopGo	SARS PLP yeast	Marburg entry inh	Cruzain inh noDet	Cruzain inh Det	Lassa entry inh	RE007 growth inh
COc1cc(NC(=O)C2CCN(S(=O)(=O)Cc3ccccc3)CC2)c(OC)cc1Cl	.	-21%	.	0%[46.1 µM]	3%	-5.7%	2%[46.1 µM]	.
COc1ccc(S(=O)(=O)N2CCC(N3CCN(Cc4ccccc4)C(=O)C3=O)CC2)cc1	.	55%[activator]	.	.	3%	3.3%	6%[46.1 µM]	.
CC12C=CC3(O1)C(C(=O)N1CCCOC13)C2C(=O)O (configuration not stated)	6%	6%	-1%	23%[46.1 µM]	.	.	2%	14%
Cc1ccc(C(=O)NN(CCC(=O)NC(C)(C)C)C2=NS(=O)(=O)c3ccccc32)cc1	-12%	-5%	11%	13%	-8%	-2.2%	14%	10%

Rows are unselected; 4.5% or so of the library scored in one or more.
